High-throughput results: PubChem BioAssay, National Center for Advancing Translational Sciences (NCATS)
SARS PLpro yeast: inhibitors of SARS-CoV papain-like protease in yeast; S. cerevisiae expressing SARS-CoV PLpro, growth rescue; control for the full effect not named in the record; Potency, µM (titrated, usually from 32.9 µM), without a hit: at the highest dose activity, positive = growth rescue; actives 0.19% (n = 330,000); AID 485353; further: 0% is about no effect; nearly all actives have a fitted effect of over 55% in size; growth read by luminescence after 48 h
2A StopGo: FMDV 2A StopGo reporter, luciferase signal | human cells with a luciferase reporter of 2A StopGo recoding; control for the full effect not named in the record | AID 1159524 | actives 1.2% (n = 410,000) | Potency, µM (titrated, usually from 57.9 µM), inactives show at the top dose signal change, negative = less light; active = well fitted falling curve with a large enough effect; inconclusive = small, poorly fitted or top-dose-only effect; inactive = no such curve, though single readings can be large or run the other way; tested in HEK293T cells; further: on the % scale 0 is the no-effect control and ±100 the full control effect; nearly all actives have a fitted effect of over 45% in size; luciferase light after 4 h
RE007 growth inh: less growth of the S. pombe RE007 Vpr strain | S. pombe RE007 Vpr strain, BacTiter-Glo ATP luminescence, 24 h; control for the full effect not named in the record | actives 0.21% (n = 360,000) | Potency, µM (highest dose often 92.2 µM), without a hit: at the highest dose activity change, negative = less growth; active = well fitted falling curve with a large enough effect; inconclusive = small, poorly fitted or top-dose-only effect; inactive = no such curve, though single readings can be large or run the other way;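 further: on the % scale 0 is the no-effect control and ±100 the full control effect; nearly all actives have a fitted effect of over 50% in size; the assay follows cell death caused by Vpr and the record does not say whether a fall means rescue or toxicity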
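Fission yeast strain RE007, carrying one chromosomally integrated HIV-1 vpr copy, was seeded at OD 0.01 in PMG+AL medium with 23 nL pinned compound. After 24 h at 30 °C and 99% humidity, viability was read by BacTiter-Glo luminescence.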
Cruzain inh noDet: cruzain (T. cruzi) inhibition without detergent. purified cruzain, Z-FR-AMC fluorescence, no detergent. Potency, µM, inactives show max response, negative = inhibition, most hits filed as inhibitors. actives 2.3% (n = 200,000). AID 1476; active means well fitted curve in the direction sought with a large enough effect; inconclusive means small, poorly fitted or top-dose-only effect, or another doubt; inactive means no such curve, though single readings can be large; an effect the other way counts as inactive or inconclusive;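 further: plate controls were enzyme without inhibitor for no effect and buffer without enzyme for full effect; nearly all actives have a fitted effect of over 40% in size; top concentration of the series not given in the record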
Target sequence (P25779 123-467 limits assumed): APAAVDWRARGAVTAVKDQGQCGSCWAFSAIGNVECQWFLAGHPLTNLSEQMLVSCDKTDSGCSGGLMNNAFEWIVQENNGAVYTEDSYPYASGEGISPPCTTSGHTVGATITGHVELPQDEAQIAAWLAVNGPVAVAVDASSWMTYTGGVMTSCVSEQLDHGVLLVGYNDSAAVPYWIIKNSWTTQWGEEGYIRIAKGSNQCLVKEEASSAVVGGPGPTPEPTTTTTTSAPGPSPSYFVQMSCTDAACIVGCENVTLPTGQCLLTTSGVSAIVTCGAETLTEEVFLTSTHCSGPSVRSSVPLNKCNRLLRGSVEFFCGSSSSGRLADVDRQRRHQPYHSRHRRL
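Detergent-free condition (0.00005% Triton X-100) in acetate buffer pH 5.5 with DTT. 1.5 nM enzyme and compound were pre-mixed 15 min, then 2 uM Z-FR-AMC substrate added; reaction progress from fluorescence change between first and third reads (60 s).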
NS1 function inh: inhibitors of influenza NS1 protein function | S. cerevisiae slowed by influenza A NS1, growth recovery by OD600 | Potency, µM (series often up to 46.1 µM), for the others: top-dose activity, positive = more growth | actives 0.4% (n = 270,000) | AID 2326; further: actives are rising curves; nearly all actives have a fitted effect of over 50% in size
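In this qHTS, NS1 from influenza A is expressed in budding yeast, where it slows growth. Cells are switched from glucose to 2% galactose medium (pH 6.0, -URA), treated with compound, and growth recovery is read at OD600.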
Marburg entry inh: blocks Marburg virus binding to or entry into cells; AID 540276; Potency, µM (titrated, usually from 37.8 µM), for inactives: at the top dose activity change, negative = inhibition, actives largely listed as inhibitors; Marburg virus pseudotyped entry inhibition, cell reporter; control for the full effect not named in the record; about a third of the inactives were read at about 46 µM; actives 1.8% (n = 300,000); active = well fitted inhibition curve with a large enough effect; inconclusive = small, poorly fitted or top-dose-only effect, or effect the other way; inactive = flat fitted curve, though single readings scatter; tested in HEK293 cells; about a fifth of its hits are not listed in these tables; further: on the % scale 0 is the no-effect control and ±100 the full control effect; luciferase read-out
Lassa entry inh: blocks Lassa virus binding to or entry into cells; Lassa virus pseudotype entry inhibition, cell reporter; control for the full effect not named in the record; Potency, µM (top dose mostly 37.9 µM), for the others: at the highest dose activity change, negative = inhibition, most hits filed as inhibitors; actives 1.2% (n = 300,000); AID 540256; active means well fitted inhibition curve with a large enough effect; inconclusive means small, poorly fitted or top-dose-only effect, or effect the other way; inactive means flat fitted curve, though single readings scatter; tested in HEK293 cells; further: on the % scale 0 is the no-effect control and ±100 the full control effect; nearly all actives have a fitted effect of over 50% in size; luciferase read-out
Cruzain Triton: blocks cruzain activity in presence of Triton detergent | P25779 | AID 1478 | actives 0.43% (n = 200,000) | Potency, µM, for the others: max response, negative = inhibition, usual class: inhibitors | purified cruzain, Z-FR-AMC fluorescence, 0.01% Triton; active means well fitted curve in the direction sought with a large enough effect; inconclusive means small, poorly fitted or top-dose-only effect, or another doubt; inactive means no such curve, though single readings can be large; an effect the other way counts as inactive or inconclusive;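 further: plate controls were neutral wells for no effect and buffer without enzyme for full effect; nearly all actives have a fitted effect of over 40% in size; top concentration of the series not given in the record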
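Purified cruzain (1.5 nM final) was preincubated with compounds for 15 min at room temperature in 100 mM sodium acetate pH 5.5, 5 mM DTT, 0.01% Triton X-100. Reaction started with 2 uM Z-FR-AMC; AMC fluorescence change over 60 s gave activity.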
Active calls of the source: *; ? = inconclusive; nt = not tested or not shown; & = joins results of further samples; [ ] = remark or other dose. Unless noted, the call rests on the fitted dose curve; in most records, active means well fitted rising curve with a large enough effect; inconclusive means small, poorly fitted or top-dose-only effect; inactive means no such curve, though single readings can be large or run the other way. Potency means the concentration at half of the fitted maximal effect.

SMILES	SARS PLpro yeast	2A StopGo	RE007 growth inh	Cruzain inh noDet	NS1 function inh	Marburg entry inh	Lassa entry inh	Cruzain Triton
COc1cccc(CNC(=O)CS(=O)(=O)Cc2nc(-c3ccc(C)cc3)oc2C)c1OC	15%	?	-4%	nt	10%	nt	nt	nt
O=C(CCc1ccccc1)NNC(=O)Nc1cccc(Cl)c1	-2%	18%	-2%	nt	5%	0%[46.1 µM]	-16%[46.1 µM]	nt
COc1ccc(Cl)cc1NC(=O)COC(=O)Cc1cccs1	-8%	-16%	-2%	nt	nt	?	10%	nt
O=C(NNC1=C(C(=O)C(F)(F)F)CCC1)c1ccc(Br)cc1	-53%	nt	-6%	-9%	-77%	?	?	-2.8%
COc1ccccc1C(=O)Nc1ccc(Cc2ccncc2)cc1	-12%	-17%	-11%	-4%	-20%	-32%	-2%	-3.8%
N#CC1=C(N)C(C#N)(C#N)C(c2ccncc2)C2CN(C(=O)OCc3ccccc3)CC=C12 (stereo unspecified)	8%	?	-7%	?	18%	?	?	-5.4%
CC(=O)c1sc(N/N=C\c2ccccc2O)nc1C	0%	13%	-11%	nt	-3%	?	?	nt
CCc1ccc(CCC(=O)Nc2nnc(CC)s2)o1	1%	14%	2%	5%	-3%	1%	0%	-4.4%
N[C@H](C(=O)O)[C@H](O)C(=O)O	nt	-18%&-26%	nt	-2%&-3%	0%	?	13%	4.4%&2.5%
CCOc1ccc(CN2CCNC(=O)C2CC(=O)N(C)CC2CCOCC2)cc1 (stereo unspecified)	3%	7%	3%	nt	13%	18%	14%	nt
CCn1nccc1C(=O)Nc1cccc(C)c1C	7%	-14%	-9%	nt	1%	-1%[46.1 µM]	8%[46.1 µM]	nt
COCC(C)n1c(C)cc(C(=O)COC(=O)/C=C/c2cccc(F)c2)c1C (stereo unspecified)	0%	?	3%	nt	nt	?	-11%	nt
COc1cccc(-c2nc(CS(=O)(=O)CC(=O)NCCc3ccc(OC)c(OC)c3)c(C)o2)c1	3%	?	-1%	?	-17%	-10%&0%[46.1 µM]	-14%&5%[46.1 µM]	-6.5%
CC(C)N(C)C1CCN(C(=O)Nc2ccc(Cl)c(Cl)c2)CC1	-1%	-22%	-10%	-1%	4%	-23%	22%	2.4%
CCC(C)NS(=O)(=O)c1ccc(NS(=O)(=O)c2ccc(F)cc2)cc1 (stereo unspecified)	11%	4%	0%	3%	6%	13%	-8%	-10%
Cc1ccccc1C(=O)/C=C1/c2ccccc2CC(C)(C)N1C	4%	-12%	-6%	2%	-12%	15%	3%	0.7%
COCCN1Cc2cccc(C(=O)Nc3ccc(S(=O)(=O)N4CCCCCC4)cc3)c2C1=O	0%	14%	1%	nt	-14%&1%	-17%&-17%[46.1 µM]	7%	nt
CC(C)CC(COCc1ccc(Cl)cc1)N1CCN(C(=O)c2ccc(C(F)(F)F)cc2)CCC1=O (stereo unspecified)	-4%	?	4%	?	-7%	?	?	-8.7%
CCOc1ccccc1/C=N/OCC(=O)NCc1ccc(F)cc1	-5%	-19%	1%	nt	nt	-15%[46.1 µM]	nt	nt
CC1=C(C(=O)Nc2ccc(F)c(F)c2)C(c2cccs2)NC(=S)N1 (stereo unspecified)	-8%	-18%	3%	3%	21%	-5%	2%	-4.3%
C[C@@H](C(=O)NCc1c(F)cccc1Cl)N1C(=O)N2CCc3c([nH]c4ccccc34)[C@@]2(C)C1=O	-5%	?	10%	nt	8%	nt	nt	nt
COC(=O)c1ccc(C)c(NS(=O)(=O)c2ccc3c(c2)OCCO3)c1	2%	8%	14%	-7%	-4%	?	?	-2.7%
Cn1nnc2cc(C(=O)Nc3ccccc3F)ccc21	-3%	19%	2%	nt	8%	?	-16%[46.1 µM]	nt
Cc1cc(NS(=O)(=O)c2ccc(NC(=O)c3cnc4sccn4c3=O)cc2)nc(C)n1	0%	74%[activator]	6%	nt	-6%	nt	nt	nt
CC/C(=N/NC(=O)CNc1ccc(Cl)cc1C)c1ccccc1	-4%	-2%	1%	nt	nt	?	-30%	nt
CCCC(O)(CCC)C(=O)NN1CCCCC1	1%	7%	-2%	-2%	6%	5%&5%	23%	8.2%
CCc1nc(Nc2ccccc2F)c2oc3ccccc3c2n1	-1%	-28%	-13%	nt	-11%	?	?	nt
CC(=O)c1c(-c2ccccc2)c2cc(Cl)ccc2[nH]c1=O	0%	3%	14%	nt	5%	-25%[14.2 µM]	-29%	nt
COC(=O)c1ccc(N2CCc3ccccc32)c([N+](=O)[O-])c1	-4%	?	4%	nt	-9%	nt	nt	nt
Cc1cc(N2CCN(C)CC2)nc2ccc(NC(=S)N3CCN(c4ccccn4)CC3)cc12	0%	7%	16%	nt	-3%	?	-12%	nt
COc1ccc(-c2csc(Nc3ccccn3)n2)cc1OC	-19%	-2%	5%	nt	-4%	?	?	nt
COc1ccc(-c2nc3ccccc3s2)cc1NC(=O)COc1ccccc1C	nt	15%	nt	-6%	nt	26%[46.1 µM]	-1%[46.1 µM]	1.0%
CCC(=O)N1CCc2cc(S(=O)(=O)NCc3ccc(C)cc3)ccc21	nt	23%	nt	1%	nt	-5%[46.1 µM]	0%[46.1 µM]	-1.2%
CC(C(=O)Nc1ccc(Cl)cc1)N(C)Cc1cccs1 (stereo unspecified)	-5%	8%	-9%	nt	-28%	-21%[46.1 µM]	10%	nt
Cc1cc(C)c(NC(=O)COC(=O)c2cccc3c2C(=O)c2ccccc2C3=O)c(C)c1	-1%	-2%	-13%	-29%	5%	?	?	-7.9%
CCOC(=O)c1ccc(N2C(=O)c3[nH]nc(-c4ccccc4)c3C2c2cccs2)cc1 (stereo unspecified)	nt	-58%	nt	8%	nt	?	?	-0.7%
C/C(=N\NC(=O)CNC(=O)C(c1ccccc1)c1ccccc1)c1ccc(C(C)(C)C)cc1	-1%	-2%	9%	?	-4%	-6%	-5%	0.8%
COc1ccc(C(=O)CSc2nnc(CNC(=O)c3ccco3)n2C)cc1OC	2%	4%	36%	nt	-6%	8%[46.1 µM]	-2%	nt
COc1ccc(S(=O)(=O)N(CC(=O)NCc2ccco2)c2ccc(F)cc2)cc1	-1%	-16%	1%	nt	-1%	-31%[46.1 µM]	?	nt
COc1ccc(NC(=O)COC(=O)CC2CCCC2)cc1Cl	-4%	-9%	-12%	nt	nt	-11%[46.1 µM]	?	nt
O=C(COc1ccc(F)cc1)OCc1cc(=O)n2nc(C3CCCCC3)sc2n1	nt	4%	nt	-3%	nt	nt	29%[46.1 µM]	-1.7%
Cc1cccc(NC(=O)CSc2nc3[nH]c(=O)cc(O)c3s2)c1	0%	-7%	12%	nt	nt	?	9%	nt
CC(=O)N1N=C(c2cccc([N+](=O)[O-])c2)OC1c1cccc(Br)c1 (stereo unspecified)	-3%	-18%	30%	nt	nt	-20%[46.1 µM]	-21%	nt
CCCCNC(=O)C(CC)Sc1nnc(-c2ccc(OC)c(OC)c2)c(-c2ccc(OC)c(OC)c2)n1 (stereo unspecified)	nt	11%	nt	?	nt	nt	-12%[46.1 µM]	-6.9%
CCCc1nc2ccccc2c(C(=O)OCC(=O)N2CCc3ccccc32)c1CC	-4%	?	-21%	0%	-27%	?	?	-11%
O=C(NC(=S)Nc1c(Cl)ccc2nsnc12)c1ccccc1F	1%	-2%	6%	nt	3%	nt	nt	nt
Cc1ccc(CSc2nc3ccncc3n2Cc2nc(-c3ccc(Cl)cc3)oc2C)cc1	nt	-29%	nt	15%	nt	?	23%[46.1 µM]	-4.1%
O=C(NC1CCN(Cc2cccc([N+](=O)[O-])c2)CC1)c1ccccc1	-1%	-28%	-7%	nt	2%	nt	nt	nt
COc1cnc(-c2ccccc2)nc1Sc1ccccc1	-5%	-6%	-7%	nt	nt	?	20%	nt
COc1cc2cc(CN(Cc3nnnn3C3CCCC3)C3CCCC3)c(=O)[nH]c2cc1OC	4%	nt	nt	4%	-14%	nt	nt	-1.2%
NS(=O)(=O)c1ccc(NS(=O)(=O)c2ccc(C3CNC(=O)C3)cc2)cc1 (stereo unspecified)	17%	-6%	24%	nt	17%	2%[46.1 µM]	13%	nt
COc1ccccc1NC(=O)CN1CCC(c2nc3ccccc3[nH]2)CC1	-1%	-24%	1%	nt	5%	-18%[46.1 µM]	?	nt
c1ccc2c(c1)ccc1nnnn12	nt	-5%	35%	nt	nt	-4%[46.1 µM]	7%	nt
Cc1cc2c(c(=O)n1C)C(Cc1ccccc1)C(C#N)=C(N)O2 (stereo unspecified)	3%	4%	1%	0%	5%	19%	19%	-2.1%
CCC1CCCCN1CCCNC(=O)Cn1c(=O)c2cccn2c2ccccc21 (stereo unspecified)	8%	-2%	-9%	nt	-1%	?	12%[46.1 µM]	nt
CCC(=O)N1CCN=C1SCc1cc(C)ccc1C	13%	-6%	-8%	nt	-30%	nt	nt	nt
COc1ccc(OCCOC(=O)CNS(=O)(=O)c2ccc(SC)c([N+](=O)[O-])c2)cc1	-2%	26%	7%	nt	nt	4%	-3%	nt
CC(C)c1nc(SCc2c(F)cccc2Cl)c2c(=O)n(C)c(=O)n(C)c2n1	2%	0%	1%	-22%	-59%	nt	nt	-1.3%
O=Cc1cn(Cc2ccc(Br)cc2)c2ccccc12	-4%	?	18%	nt	-4%	nt	nt	nt
COc1ccc(CNC(=O)C(c2ccc(C)o2)N(C(=O)c2csnn2)c2ccc(C(C)C)cc2)cc1 (stereo unspecified)	-7%	-4%	2%	?	-5%	?	?	0.0%
COc1cccc(N2CCN(C(=O)c3ccc(CS(=O)c4ccc(Cl)cc4)o3)CC2)c1 (stereo unspecified)	11%	?	0%	nt	1%	nt	nt	nt
COCCC(=O)N1CCc2c([nH]c3ccccc23)C1C(C)(C)C (stereo unspecified)	1%	-9%	-8%	nt	0%	-19%[46.1 µM]	7%[46.1 µM]	nt
CCNC(=O)CC1C(=O)N(c2ccc(F)cc2)C(=O)N1Cc1ccc(OC)c(OC)c1 (stereo unspecified)	nt	0%	nt	1%	nt	-23%[46.1 µM]	8%[46.1 µM]	3.1%
